Screening data as filed in PubChem.
VDR inh: inhibitors of human vitamin D receptor; 400,000 tested, 0.93% active; VDR-SRC2-3 peptide fluorescence polarization, 2 h; Potency, µM, for inactives: max response, negative = inhibition, hits mostly inhibitors; active = well fitted inhibition curve with a large enough effect; inconclusive = small, poorly fitted or top-dose-only effect, or another doubt; inactive = no such curve, though single readings can be large or run the other way; also: series mostly up to about 120 µM
Target sequence (P11473 whole entry, looked up): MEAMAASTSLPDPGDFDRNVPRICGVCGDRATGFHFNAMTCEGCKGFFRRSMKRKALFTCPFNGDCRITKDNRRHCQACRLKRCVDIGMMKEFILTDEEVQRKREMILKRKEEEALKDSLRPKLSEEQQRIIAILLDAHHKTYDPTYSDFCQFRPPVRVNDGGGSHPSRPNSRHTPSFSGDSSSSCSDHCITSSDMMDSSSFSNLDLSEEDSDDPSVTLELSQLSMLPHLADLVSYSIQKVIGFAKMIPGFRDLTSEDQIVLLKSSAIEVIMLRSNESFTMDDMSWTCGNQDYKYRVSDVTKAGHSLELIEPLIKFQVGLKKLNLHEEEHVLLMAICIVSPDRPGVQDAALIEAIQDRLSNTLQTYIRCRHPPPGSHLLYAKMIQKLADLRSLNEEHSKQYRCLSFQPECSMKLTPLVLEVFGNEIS
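After 23 nl compound addition and a short centrifugation, plates sat for 2 hours at ambient temperature; polarization of fluorescence then indicated loss of VDR binding to peptide SRC2-3.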
An asterisk follows results filed as active; ? = inconclusive; [ ] = another dose, or the depositor's remark. % is scaled to controls: 0 for no effect and ±100 for the full control effect; potency is read from the fitted curve at half-maximal effect. This is a subset; rates above refer to the full screens.

SMILES	VDR inh
COc1cc(OC)c(NC(=O)CN2CCCN(Cc3ccccc3C)S2(=O)=O)cc1Cl	4%
Cc1ccc2c(CN3CCN(Cc4ccc5c(c4)OCO5)CC3)cc(=O)oc2c1C	2%
O=C(CN1CCOCC1)Nc1cc([N+](=O)[O-])ccc1Cl	-9%
O=C(Nc1cccc2c1CCCC2)c1ccc(Cl)c([N+](=O)[O-])c1	9%
O=S(=O)(NC(=NCc1ccccc1)c1ccc(F)cc1)c1ccc(Cl)cc1	?
CC(C)CN(C(=O)COC(=O)c1ccc2c(c1)OCO2)c1c(N)n(Cc2ccccc2)c(=O)[nH]c1=O	-12%
CCOC(=O)CSc1nnc(CNC(=O)c2cccs2)n1-c1ccccc1	-4%
COc1ccccc1C(C#N)N1N=C(C)CC1(C)C (stereo not drawn)	5%
Cc1cc(C)c2oc(=O)cc(CN3CCN(Cc4ccc5c(c4)OCO5)CC3)c2c1	-5%
O=C(Nc1nccs1)C1CC2CCC1C2 (stereo not drawn)	-12%
O=C(CN1CCC(n2nnc3cc(F)ccc32)CC1)NC1CCCCC1	-22%
COc1cccc2cc(C(=O)Nc3ccc(C)cc3)c(=O)oc12	-9%
CCOc1ccccc1NC(=O)CN1C(=O)CC(c2ccco2)Sc2ccccc21 (stereo not drawn)	-13%
CCCCN1C(=O)C(O)(c2c(C)[nH]c3ccccc23)c2cc(Br)ccc21 (stereo not drawn)	-19%
COc1ccc(C(=O)c2oc3ccc(Br)cc3c2NC(C)=O)cc1	-4%
CCOc1ccc2nc(NC(=O)CN3C(=O)NC4(CCCC4)C3=O)sc2c1	-5%
O=c1[nH][nH]c(-c2ccccc2)c1C=Nc1ccc(Cl)cc1	-8%
COc1ccc2oc(C)c(NC(C)=O)c2c1	-1%
COc1cc(NC(=O)c2ccccc2Cl)c2ncccc2c1	-5%
CCOC(=O)CNC(=O)Cn1nc(N2CCN(c3ccccc3)CC2)ccc1=O	-1%
CCOC(=O)c1oc2ccccc2c1NC(=O)C1CCCCC1	-1%
N/C(COc1ccc(Cl)cc1Cl)=N\O	1%
Cc1nnc(SCC(=O)NNC(=O)c2ccccc2)n1Cc1ccccc1	13%
c1csc(-c2nnc(NC3CCCCC3)c3ccccc23)c1	6%
CN(CC(=O)Nc1ccc(F)cc1)C(=O)Cn1nnc(-c2ccccc2)n1	0%
Cc1ccc(C)c(N2CCN(C(=O)C3CCN(S(=O)(=O)c4c(C)noc4C)CC3)CC2)c1	4%
O=C(CSCCS(=O)(=O)c1ccc(Cl)cc1)Nc1ccccc1	1%
COc1ccccc1N(C(=O)c1snc(C(N)=O)c1N)C(C(=O)NC1CCCCC1)c1cccc(OC)c1OC (stereo not drawn)	-2%
CC(C)N1CCC(N2CCN(Cc3ccc4nsnc4c3)CC2CCO)CC1 (stereo not drawn)	3%
COCCNC(=O)c1ccccc1NC(=O)COc1ccccc1	1%
O=C(CSc1ccc(Cl)cc1)Nc1cccc(-c2nc3ccccc3[nH]2)c1	-7%
CCCCCCC(NC(=O)Cc1ccc2ccccc2c1)C(=O)O (stereo not drawn)	-9%
O=C(OCn1nnc2ccccc2c1=O)c1ccc2ccccc2n1	-1%
O=c1c(-c2cc(-c3ccc(Cl)cc3)nc3c2COc2ccccc2-3)coc2ccccc12	1%
Cc1cc(C)n(C)c(=O)c1C#N	23%
CC(C1OC(C)(C)C(O)C1O)C1CC[C@@]2(C)C3=CCC4C(C)(C)C(=O)CC[C@]4(C)C3CC[C@@]12C (stereo partly drawn)	-2%
COc1ccc(-c2nc3cnc(OC)nc3n(CCc3ccccc3)c2=O)cc1	2%
O=C(NC1CC1)C1=NOC(CNc2ncc(C(F)(F)F)cc2Cl)C1 (stereo not drawn)	-13%
CCOC(=O)Oc1c(OC)cc(C(=O)O[C@@H]2C[C@@H]3CN4CCc5c([nH]c6cc(OC)ccc56)[C@H]4C[C@@H]3[C@H](C(=O)OC)[C@H]2OC)cc1OC	22%
COCc1ccc(-c2c(-c3ccsc3)oc(=O)c3cc(OC)c(OC)cc23)cc1	-9%
CCCCC(=O)Nc1nnc(C2=COCCO2)o1	4%
O=C(Nc1ccc2oc(=O)ccc2c1)c1cccnc1	8%
O=C1c2ccccc2NC(c2cccc(Cl)c2)N1N=C1CCCCCC1 (stereo not drawn)	15%
CCCN(C(=O)Cn1ncc2c([nH]c3ccc(C)cc32)c1=O)c1ccccc1C	-3%
COc1ccc(NS(=O)(=O)c2cc(NC(=O)c3ccncc3)ccc2N2CCOCC2)cc1	-14%
CCOCCCNC(=O)c1ccc(-n2c(=S)[nH]c3ccccc3c2=O)cc1	2%
CCOC(=O)c1c(C)[nH]c(C(=O)N/N=C/c2cccc(OC)c2)c1C	0%
O=C(Nc1ccc2[nH]ncc2c1)c1ccc(F)cc1	-7%

Quoted at random: 3 records from the list.
SMILES	VDR inh
CCOC(=O)c1oc2ccccc2c1NC(=O)C1CCCCC1	-1%
Cc1ccc(C)c(N2CCN(C(=O)C3CCN(S(=O)(=O)c4c(C)noc4C)CC3)CC2)c1	4%
O=C(CSc1ccc(Cl)cc1)Nc1cccc(-c2nc3ccccc3[nH]2)c1	-7%

Carrying on.
SMILES	VDR inh
C#CCOCCOCCOCCNc1nc(N2CCN(C(=O)[C@H](CCCCN)n3cc([C@@H](N)CC(N)=O)nn3)CC2)nc(N2CCN(C(=O)[C@H](CCCCN)n3cc([C@@H](N)CC(N)=O)nn3)CC2)n1	-2%
O=C(CS(=O)(=O)Cc1ccccc1)Nc1ccccc1Cl	-4%
NC(=O)c1ccc(NC(=O)CSc2nncn2-c2ccccc2)cc1	-11%
COc1ccccc1N1CCN(C(=O)CCc2c[nH]c3ccccc23)CC1	-20%
COc1ccc(-c2cc3ccccc3cn2)cc1	11%
CCn1cnc2cc(NCc3nc4ccccc4n3C)ccc21	1%
Cc1onc(-c2ccccc2Cl)c1C(=O)Nc1ccc(OCC(=O)N2CCOCC2)cc1	-16%
CC(C)(C)OC(=O)N1CCC[C@H]1C(=O)Nc1ccc(C#N)cc1	10%
COc1cccc(NC(=O)CN(c2ccccc2OC)S(=O)(=O)c2cccs2)c1	23%
COc1cccc(/C=N/NC(=O)c2cc3c(OC)cccc3[nH]2)c1O	-11%
COCCN(C(=O)COC(=O)C1COc2ccccc2O1)c1c(N)n(Cc2ccccc2)c(=O)[nH]c1=O (stereo not drawn)	13%
COC(=O)CCN(C(=O)c1ccc2c(c1)OCO2)c1ccccn1	-14%

2 of the compounds above, with the structure last:
VDR inh,Structure
-11%,COc1cccc(/C=N/NC(=O)c2cc3c(OC)cccc3[nH]2)c1O
-16%,Cc1onc(-c2ccccc2Cl)c1C(=O)Nc1ccc(OCC(=O)N2CCOCC2)cc1

Further compounds follow.
SMILES	VDR inh
Cc1ccc(NC(=O)Cn2c(O)c(N=NC(=O)c3cc4ccccc4cc3O)c3ccccc32)cc1	4%
Cc1ccc(F)cc1S(=O)(=O)N1CCC(c2nc3ccccc3s2)CC1	2%
COc1ccc(CNC(=O)CN(C)S(=O)(=O)c2ccc(Br)s2)cc1	-7%
COC(=O)CP(=O)(c1ccccc1)c1ccccc1	-1%
CCOc1c(Br)cc(C2NS(=O)(=O)N=C3CCCCCN32)cc1OC (stereo not drawn)	14%
Cc1ccccc1Nc1nc(Nc2ccccc2C)nc(SC2=NCCS2)n1	-18%
C=CCNC(=O)/C(=C/c1ccco1)NC(=O)c1ccc(Br)o1	3%
CCN(C[C@H]1N[C@@](CC)(C(=O)OC)[C@H]2C(=O)N(C)C(=O)[C@@H]12)S(=O)(=O)c1ccc(C(C)(C)C)cc1	0%
CCC(C)N(C(=O)CSc1nnc(NC(C)C)s1)C1CCS(=O)(=O)C1 (stereo not drawn)	-1%
CC1(CCc2ccccc2)NC(=O)N(CC(=O)Nc2ccccc2)C1=O (stereo not drawn)	3%
Cc1ccc(S(=O)(=O)Nc2cccc(-c3ccc(N4CCCCCC4)nn3)c2)cc1	-6%
COC(=O)[C@]1(Cc2ccccc2)N[C@H](CN(C)C(=O)COc2ccccc2)[C@@H]2C(=O)N(C)C(=O)[C@@H]21	-8%
COc1ccc(-c2ccc(OC)c([C@H]3[C@H]4C=CC[C@@H](C)[C@@H]4C(=O)N3Cc3ccccc3)c2)cc1C	-18%
CC(=O)NCCNc1ncncc1-c1ccccc1C(F)(F)F	?
COc1ccc(C(=O)N2CCN(c3cccc(Cl)c3)CC2)cc1	-18%
Cc1cc(-c2onc(C)c2C(N)=O)no1	9%
CC(/C=C1\SC(=S)N(C(C(=O)O)c2ccccc2)C1=O)=C\c1ccccc1 (stereo not drawn)	-17%
COc1ccc(CN(C)C(C)C(=O)N(C)CC(=O)Nc2ccc(C)cc2)cc1F (stereo not drawn)	-16%
CC(C)(C)N=C1NN=C(c2ccc(Cl)cc2)CS1	-16%
CN(C(=O)c1ccc(NC(=O)Cc2cccc([N+](=O)[O-])c2)cc1)C1CC1	16%
CN(Cc1ccccc1)C(=O)CN1C(=O)C2C3C=CC(C3)C2C1=O (stereo not drawn)	-2%
O=C(c1cnccn1)N1CCC2(CC1)CCN(c1ccncc1)CC2	-3%
Cc1cccc(-c2oc3ccc(-c4ccc5c(c4)OCO5)cc3c2C(=O)OCc2ccc(O)cc2)c1	-27%
CCC1CCCCN1CCCNC(=O)Cn1nc(-c2ccc(C)cc2)ccc1=O (stereo not drawn)	14%
Cc1cnc(NC(=O)C2CC(=O)N(c3ccc4c(c3)OCCO4)C2)s1 (stereo not drawn)	-4%
C/C(=N\NC(=O)c1ccccc1)c1ccc(N2CCOCC2)cc1	6%
CCN1CCN(C(=O)Nc2cccc(C(F)(F)F)c2)CC1	-4%
O=C(Nc1ccc(F)cc1)c1nc2c(nnn2Cc2cccc3ccccc23)c(=O)[nH]1	26%
Cc1cccc(NC(=O)NNC(=O)c2sccc2-n2cccc2)c1	-1%
Cc1cc(C(F)(F)F)c(C#N)c(SCC(=O)Nc2nc3cc(Br)ccc3s2)n1	-16%
O=C(CN1CCCCCC1=O)N1CCN(S(=O)(=O)c2cccs2)CC1	-6%
Cc1ccc(S(=O)(=O)N2CCCc3cc(NC(=O)c4ccc(F)c(F)c4)ccc32)cc1	0%
Nc1nc(SCC(=O)Nc2ccc3c(c2)OCO3)n[nH]1	-9%
COc1ccc(C(NC(=O)C(C)(C)C)NC(=O)C(C)(C)C)cc1	0%
COc1ccc(OC)c(NC(=O)c2cccnc2Sc2ccccc2)c1	-9%
Cc1nc(C)c(-c2nnc(-c3cccc(S(=O)(=O)N(C)C)c3)o2)cc1C(=O)NN	7%
COc1cccc2cc(C(=O)NC3CC(C)(C)NC(C)(C)C3)c(=O)oc12	-2%
CCCCC(c1nnnn1CS(=O)(=O)c1ccc(C)cc1)N1CCN(c2ccccc2)CC1 (stereo not drawn)	-7%
O=C(N/N=C/c1oc(O)c2ccccc12)c1ccccc1	-6%
CC(=O)Nc1ccc(NC2CCCCC2NS(=O)(=O)c2ccc(Cl)cc2)cc1 (stereo not drawn)	0%
O=C(CSc1nnc(-c2ccco2)o1)c1ccc[nH]1	33%[activator]
CCN(CC)c1cc2c(cc1F)c(=O)c(S(=O)(=O)c1ccc(C)cc1)cn2Cc1ccc(F)cc1	11%
O=C(O)CSCc1nc2scc(-c3ccccc3)c2c(=O)[nH]1	-25%
O=C(CN1CCN(c2ccc(F)cc2)CC1)N1CCC(Cc2ccccc2)CC1	-4%
OCC1O[C@@H](OC2C(O)C(CO)O[C@@]2(CO)O[C@@H]2OC(CO)C(O)C(O)C2O)C(O)C(O)C1O (stereo partly drawn)	9%
Cc1ccc(NC2c3ccccc3C(=O)N2CCN2CCOCC2)cc1 (stereo not drawn)	1%
O=C(Oc1ccc2c(c1)C(=O)c1ccccc1CO2)c1ccccc1	10%
Cc1cc(NC(=O)COC(=O)COc2ccc(C(=O)c3ccccc3)cc2)no1	-6%
Cc1noc(C)c1S(=O)(=O)N(CC(=O)N1CCCC1)c1ccc(C(C)C)cc1	-10%
CCn1cc(Cl)c(C(=O)Nc2cccc(C(F)(F)F)c2)n1	-10%
CC(C)C(NS(=O)(=O)c1ccc(-c2ccc(Br)cc2)cc1)C(=O)O (stereo not drawn)	?
CCOC(=O)c1ccc(Oc2cn[nH]c2-c2ccc(O)cc2O)cc1	15%
CCOc1ccc(S(=O)(=O)Nc2ccccc2C(=O)NCC2CCCO2)cc1 (stereo not drawn)	-2%
CC(=O)c1oc2ccccc2c1NC(=O)COC(=O)c1ccc(-n2nc(C)cc2C)cc1	-2%
CCCOc1ccc(C(=O)OCC(=O)c2c(N)n(C)c(=O)n(C)c2=O)cc1OC	-9%
COc1ccc2sc(N(CCN(C)C)C(=O)c3cc(Cl)sc3Cl)nc2c1	-24%
COc1cc(OC)c(NC(=O)CC(C)=O)cc1Cl	-1%
COc1cc(-c2nnc(-c3cccs3)o2)cc(OC)c1OC	-2%
CCN(CC)CCNC(=O)c1ccc(NC(=O)Nc2cccc3ccccc23)cc1	-12%
COc1ccccc1N(CC(=O)Nc1ccc2c(c1)OCCO2)S(C)(=O)=O	-7%
COc1ccc(Cc2noc(CN(C)CCN3CCc4ccccc4C3)n2)cc1OC	-20%
Cc1ccc(S(=O)(=O)N2CCN=C2SCc2c(F)cccc2Cl)cc1	-8%

For convenience, 6 of the compounds above:
SMILES	VDR inh
COc1cc(OC)c(NC(=O)CC(C)=O)cc1Cl	-1%
COc1cc(-c2nnc(-c3cccs3)o2)cc(OC)c1OC	-2%
CCN(CC)CCNC(=O)c1ccc(NC(=O)Nc2cccc3ccccc23)cc1	-12%
COc1ccccc1N(CC(=O)Nc1ccc2c(c1)OCCO2)S(C)(=O)=O	-7%
COc1ccc(Cc2noc(CN(C)CCN3CCc4ccccc4C3)n2)cc1OC	-20%
Cc1ccc(S(=O)(=O)N2CCN=C2SCc2c(F)cccc2Cl)cc1	-8%
